CapD inh: Bacillus anthracis CapD inhibitors, primary screen, biochemical, fluorescence intensity | CapD gamma-glutamyltranspeptidase (Bacillus anthracis Ames Ancestor) | purified CapD enzyme, fluorescence intensity read-out; stronger effect = lower value; some hits fall short of the stated cut | z-score (no concentration beside the values) | 0.23% of 140,000 active | AID 492967, 2010;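 active = z-score under -4 in either of two replicates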;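 note: stock transfer was 100 nL into about 40 µL; score is relative to mean and spread of the plate; one replicate is shown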
AID504770: growth inhibition of E. coli YBA685, primary screen, V. cholerae RctB inhibitors; E. coli YBA685 rctB-dependent plasmid, OD600 growth, 3 h; stronger effect = lower value; z-score (test concentration not listed); 0.27% of 130,000 active;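 active = z-score under -2 on both plates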;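 note: wells of about 30 µL received 100 nL stock; score is relative to mean and SD of the test wells; the first replicate is given; strong numbers were not always called active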
An asterisk follows results filed as active; x = not tested or not shown.

SMILES	CapD inh	AID504770
Cc1ccc(S(=O)(=O)N2C(=O)CCC2C(=O)N2CCCC2)cc1 (centres undefined)	x	0.1
CCc1ccc(C2NC(=O)c3c(sc4c3CCCC4)N2)cc1 (centres undefined)	-0.095	x
CC1=Nc2cc(C(=O)NCc3ccco3)ccc2Sc2ccc(C)cc21	-0.38	0.7
Cn1c(SCc2ccc(Cl)c(Cl)c2)nc(C(F)(F)F)cc1=O	-0.59	x
CCn1cc(S(=O)(=O)N2CCC(C(=O)O)CC2)cn1	x	-0.45
COc1ccc(C)cc1CCNCc1ccc(NC(C)=O)cc1	x	-0.6
COc1cccc2c1OC1(CCC(C)CC1)N1N=C(c3cccs3)CC21 (centres undefined)	1.8	x
Cc1cc(C(=O)Nc2c(-c3ccccc3)c(C(F)(F)F)nn2C)no1	0.12	0.15
Cc1ccc(-n2c(=O)c3c(c4cc(C)ccc4n3C)n(C)c2=O)cc1	97	-1.4
Cc1cnc(NC(=O)CSc2ccccc2)s1	0.36	-2.2
C(#Cc1ccc(-c2nc(-c3ccccc3)c(-c3ccc(Oc4ccccc4)cc3)[nH]2)cc1)c1ccccc1	-0.035	x
CCn1c(SC)nnc1C1CCCN1C(=O)N(c1ccccc1)c1ccccc1 (centres undefined)	x	-0.4
CN(C)C(=S)NC(=O)c1ccccc1	x	-0.05
CCN1C(=O)N/C(=C/c2cccn2-c2ccc(C(=O)O)cc2)C1=O	3.5	-0.2
COC(=O)C1=C(N)n2c(s/c(=C\c3cc(Br)ccc3F)c2=O)=C(C#N)C1c1cc(Br)ccc1F (centres undefined)	-0.23	x
COC(=O)C1=CN(C23CC4CC(CC(C4)C2)C3)C=C(C(=O)OC)C1c1ccc(F)cc1	2.4	-0.45
Cc1sc2nc(CSc3nc4ccccc4n3CC(C)C)[nH]c(=O)c2c1C	x	-0.65
CCN(CC)C(=O)c1ccc2c(c1)N(Cc1ccccc1)C(=O)CS2=O (centres undefined)	-2.1	-1.9
Cc1noc(C)c1C(=O)NCc1ccccc1F	0.41	-0.5
COC(=O)Cc1nc(Nc2cccc(Cl)c2)c2c(C)c(C)sc2n1	-0.6	x
O=S(=O)(CC(O)Cn1ccc(C(F)(F)F)n1)c1ccc(Cl)cc1 (centres undefined)	-0.62	-0.65
COC(=O)/C=C\c1cn(-c2ccccc2)nc1-c1ccc(OC)cc1	0.45	1.4
NC(=O)C1CCN(C(=O)CC2(CC(=O)O)CCCC2)CC1	-0.21	1.1
CCc1cc2c(CN(C)Cc3ccccc3F)cc(=O)oc2cc1O	x	0.4
COc1cc(C2OC(=O)c3c2ccc(OC)c3OC)ccc1O (centres undefined)	x	-1.6

Overlap with the part before: 2 compounds, then new ones.
SMILES	CapD inh	AID504770
CCc1cc2c(CN(C)Cc3ccccc3F)cc(=O)oc2cc1O	x	0.4
COc1cc(C2OC(=O)c3c2ccc(OC)c3OC)ccc1O (centres undefined)	x	-1.6
O=C(O)CSCC(=O)NCCNc1nccc(C(F)(F)F)n1	1.5	x
CCCCNc1nc(SCC(=O)NCc2ccccc2)nc2ccccc12	1.1	x
CSc1ccc(C=C(C#N)C#N)cc1	-0.67	x
COCCn1c(=S)[nH]c2sc(C)c(C)c2c1=O	x	0.15
CCC1=NN(C(=O)c2ccccc2F)C(O)(c2ccccc2)C1 (centres undefined)	0.025	1.1
CO/N=C/c1c(N(C(C)C)C(C)C)nc2ccc(C)cn2c1=O	x	-0.8
CCOC(=O)C1=C(N)Oc2n[nH]c(C)c2C12C(=O)N1c3c(cc(C)cc32)C(C)CC1(C)C (centres undefined)	0.28	-0.4
Cc1cc2ccc(C)c(C)c2nc1SCC#N	x	-0.6
CCc1ccc2oc(-c3ccccc3)cc(=NCc3cccnc3)c2c1	3.7	-0.7
O=C(Nc1ccc(-c2noc(-c3ccco3)n2)cc1)c1cccc(Br)c1	0.22	x
CC(C)CNC(=O)COc1ccc(Cl)cc1Cl	x	0.3
Cc1cc(Br)ccc1NC(=O)c1sc2ncn(CC(=O)N3CC(C)CC(C)C3)c(=O)c2c1C (centres undefined)	0.42	x
Cc1cccc2c1NC(=O)C21OCCO1	-0.19	0.5
O=C(Cc1c(F)cccc1Cl)OCc1ncc(-c2ccccc2)o1	x	-0.95
CSc1nc(SCC(=O)c2ccc3c(c2)OCO3)nc(N)c1C#N	0.19	0.65
OCC1CCCN(Cc2ccc(-c3ccccc3)cc2)C1 (centres undefined)	0.33	-0.05
Cc1ccc(S(=O)(=O)/N=C/N(C)C)cc1	0.14	x
O=C(Oc1coc(CSc2ncccn2)cc1=O)c1ccccc1	x	-0.1
CCCCC(=O)N=c1sc2cc3c(cc2n1CCC)OCO3	x	0.15
CC(Cc1n[nH]c(=S)o1)c1ccccc1 (centres undefined)	x	-1.1
CC(Cc1ccc(O)c(O)c1)(NN)C(=O)O (centres undefined)	-0.01	x
Cc1ccc(C23CC4CC(CC(CNCCO)(C4)C2)C3)cc1	-0.91	x
Cc1ccc(NC(=O)c2sc3nc(-c4ccccc4)cn3c2C)cc1	-0.085	-1.6
CCOC(=O)c1nn(-c2ccc(C)cc2)c(=O)cc1OCC(=O)NCc1ccco1	x	1.9
CC1CN(C2CCN(C3CC4CCC3C4)CC2)CC(C)O1 (centres undefined)	-0.29	-0.3

(list continues)
SMILES	CapD inh	AID504770
Cc1ccc(Cc2cnc(NC(=O)/C(C#N)=C\c3ccc(-c4ccc(C)cc4)o3)s2)cc1	0.07	0.15
Cn1ncc2c(NCc3ccccc3)nc(N3CCN(CCO)CC3)nc21	x	-0.45
CCOC(=O)c1nnn2c3ccccc3c(=O)n(C)c12	0.4	-1.1
Cc1ccc(N)c(C(O)(C(F)(F)F)C(F)(F)F)c1	1.2	-0.6
CC(C)N(CC(N)=O)C(=O)c1ccc2c(c1)NC(=O)CS2	x	-0.2
COC(=O)Cn1cnc2c(cnn2-c2ccc(OC)cc2)c1=O	x	-0.95
CCC(=O)Nc1nn2c(C)nnc2s1	-0.03	-0.5
COc1cc(C2Nc3ccccc3C(=O)N2c2cccc3ccccc23)cc(OC)c1OC (centres undefined)	16	x
CCOC(=O)C1=C(N)OC2=C(C(=O)CCC2)C12C(=O)Nc1ccc(Br)cc12 (centres undefined)	0.14	x
O=C(Nc1ccc(OC(F)(F)F)cc1)c1ccc(N2CC3CC(C2)c2cccc(=O)n2C3)c(NC(=O)c2cccnc2)c1 (centres undefined)	0.18	x
CC12CCC(C(=O)N3CCCC3)(CC1=O)C2(C)C (centres undefined)	0.095	0.2
O=C(O)CCC1(CCC(=O)O)c2ccccc2-c2nc3ccccc3cc21	6	x
CN1/C(=C\C(=O)c2nc(S(C)(=O)=O)ncc2Cl)C(C)(C)c2ccccc21	x	-1
Cc1cc(N2CCCC2)nc2ccc(NC(=S)NC3CCCC3)cc12	11	-1.8
Cc1ccc(N=C2C(=O)N(CN3CCCC(C)C3)c3ccccc32)cc1 (centres undefined)	-0.03	0.4
Cc1cc(NC(=O)c2ccco2)ccc1NC(=O)Cc1ccccc1	0.34	0.55
Cc1nn(S(=O)(=O)c2ccc(Cl)s2)c(C)c1[N+](=O)[O-]	-0.2	x
CNC(=O)CC(=O)NC	x	0.65
NC(=O)CN1C(=O)CCS(=O)(=O)c2ccccc21	x	-0.1
COc1ccc2oc(=O)cc(CN(Cc3ccco3)C3CCCC(C)C3C)c2c1 (centres undefined)	1	-0.7
O=C(c1ccc(Cl)cc1)c1c[nH]c(C(=O)C(Cl)(Cl)Cl)c1	-1.2	x
O=C(Cc1cc(F)cc(F)c1)Nc1ccc(Cl)cc1	0.11	-0.6
CCOCCn1c(=NC(=O)C2CC2)sc2cc(S(C)(=O)=O)ccc21	x	-1
CC1(C)OC(=O)C(=CNNc2ccc(C(F)(F)F)cc2)C(=O)O1	-0.18	0.4
CC1CCCN(C(=O)CSc2nc3ccccc3nc2-c2ccccc2)C1 (centres undefined)	0.45	0.65

Next section.
SMILES	CapD inh	AID504770
CSc1nc2ccsc2c(=O)n1-c1ccccc1	0.24	1.1
COc1ccc(CN2CC(C(=O)NCCN3CCN(c4ccccc4F)CC3)CC2=O)cc1 (centres undefined)	0.25	-1.1
CCN(CC)C(=O)NC1CCCCCC1	-0.85	-0.8
COc1ccc(-c2nc3scc(CCN)n3n2)cc1	x	-0.4
CCOC(=O)N1CCN(C(=O)COC(=O)c2ccc3c(c2)NC(=O)CS3)CC1	x	-0.9
CCCCCCCCc1ccc(-c2ccc(C(=O)Nc3ccc(O)c4c3C(=O)c3ccccc3C4=O)cc2)cc1	0.17	x
Cc1ccc(SCC(=O)N2CC(C)CC(C)C2)cc1 (centres undefined)	0.12	0.15
O=C(CC(c1ccccc1)c1ccccc1)NCc1ccccc1	0.54	1.9
Cc1c(C(=O)NCc2cccnc2)sc2ncnc(N3CCN(c4ccccc4F)CC3)c12	-0.17	x
CCSc1nnc2c(n1)OC(c1cc3c(cc1[N+](=O)[O-])OCO3)Nc1ccccc1-2 (centres undefined)	-0.46	x
O=C(COc1ccc(Cl)cc1Cl)Nc1ccc2nc3n(c(=O)c2c1)CCCC3	2.2	0.3
O=c1cc(CNc2ccc(S(=O)(=O)N3CCCC3)cc2)c2cc3c(cc2o1)CCC3	x	1.8
COc1ccccc1NC(=O)NC1(C(=O)N2CCCCC2)CCCCC1	x	-0.2
COC(=O)c1cccc(N=C2N=C(N)c3ccccc32)c1	4.1	-0.95
CCOc1cc(C(=O)Nc2ccncc2)cc(OCC)c1OCC	x	-1.2
CCn1cc(CC(C)N)c2ccccc21 (centres undefined)	x	-0.65
Cc1nn(-c2ccc(Cl)cc2)c2sc(C(=O)NCCCN3CCCC3=O)cc12	x	1.8
Cc1ccc(NCc2nc3ccccc3n2C)cc1	0.95	-0.05
COc1ccc(Cl)cc1N(C)S(=O)(=O)c1ccc2[nH]cc(C(=O)NCCN3CCOCC3)c(=O)c2c1	2.3	x
Cc1nc2ccc(C(F)(F)F)cc2nc1C	1.4	x
Clc1ccc(Sc2ncccc2-c2nc3ccccc3s2)cc1	-0.14	x
COC(=O)c1ccc(NS(=O)(=O)N(C)C)cc1	-0.36	-0.35
CCOc1cc(C(=O)Nc2cc(-c3nc4ccc(C)cc4o3)ccc2Cl)cc(OCC)c1OCC	0.62	x
COC(=O)c1ccc2c(c1)sc(=NC(=O)c1ccc(S(=O)(=O)N3CCCCC3C)cc1)n2C (centres undefined)	-0.96	2.3
C=CCOC(=O)c1cn(CC)c2nc(C)ccc2c1=O	-1.6	-0.55

Continuation:
SMILES	CapD inh	AID504770
O=C(CN1CCc2ccccc21)NC(=O)NCc1ccco1	x	1.1
CCOC(=O)N1CCN(c2cc(C(F)(F)F)nc3ccccc23)CC1	0.23	-0.2
c1ccc(C2CNCCc3ccccc32)cc1 (centres undefined)	-0.12	-1.4
O=C(NCCc1c[nH]c2ccccc12)c1ccc(F)cc1F	0.78	-0.55
CCOC(=O)c1cnc2c(C)c(Cl)ccc2c1Nc1cc(C)ccc1OC	0.52	-0.4
O=C(NCCc1ccccc1)/C(=N\O)c1ccccc1	-0.39	0.9
CC1(C)CC(=O)C2=C(C1)OC(N)=C(C#N)C2c1ccccc1OCc1ccccc1Cl (centres undefined)	-0.35	x
CC1=CC(c2ccccc2)n2nnnc2N1 (centres undefined)	-0.64	x
COc1ccc(N2CCN(C3c4ccccc4CC3NS(=O)(=O)c3ccccc3)CC2)cc1 (centres undefined)	x	-0.45
CC(C)C(=O)N1CCN(c2ccc(NC(=O)Cc3ccccc3)cc2Cl)CC1	x	-0.8
CCOc1ccc(Nc2cc(N3CCCCC3)c3nonc3c2[N+](=O)[O-])cc1	0.24	x
O=C(Nc1nnc(-c2cccs2)o1)c1ccc2c(c1)CCCC2	0.28	0.4
COc1cc(C2Nc3cc(C)ccc3NC3=C2C(=O)CC(c2ccccc2)C3)cc(OC)c1OC (centres undefined)	-0.49	x
Cc1nnc(SCC(=O)c2ccccc2)s1	0.8	0
CC1(C)CC2(CCO1)NN=C(c1ccccc1)S2 (centres undefined)	x	-0.1
CN1C(c2ccccc2)=Nc2cccc3cccc1c23	-0.11	-0.7
CCc1ccc(N2C(=O)/C(=C/c3ccc(OC(C)C(=O)O)cc3)C(=O)NC2=S)cc1 (centres undefined)	-1.2	x
O=c1cc2c3c(cc(O)cc3o1)OC2	93	-1.3
Cn1nc(-c2ccc(S(=O)(=O)N3CCCN(C(=O)OC(C)(C)C)CC3)s2)cc1C(F)(F)F	1.1	-0.05

Compound profiles (already shown). Screens in order: CapD inh | AID504770
Entry for CCc1ccc(N2C(=O)/C(=C/c3ccc(OC(C)C(=O)O)cc3)C(=O)NC2=S)cc1 (centres undefined) → -1.2 | x
Entry for CCOc1ccc(Nc2cc(N3CCCCC3)c3nonc3c2[N+](=O)[O-])cc1 → 0.24 | x
Entry for O=C(CN1CCc2ccccc21)NC(=O)NCc1ccco1 → x | 1.1
Entry for Cn1nc(-c2ccc(S(=O)(=O)N3CCCN(C(=O)OC(C)(C)C)CC3)s2)cc1C(F)(F)F → 1.1 | -0.05
Entry for CC1=CC(c2ccccc2)n2nnnc2N1 (centres undefined) → -0.64 | x

Entries listed so far that have a nitro group on carbon, in the order listed:
SMILES	CapD inh	AID504770
Cc1nn(S(=O)(=O)c2ccc(Cl)s2)c(C)c1[N+](=O)[O-]	-0.2	x
CCSc1nnc2c(n1)OC(c1cc3c(cc1[N+](=O)[O-])OCO3)Nc1ccccc1-2 (centres undefined)	-0.46	x
CCOc1ccc(Nc2cc(N3CCCCC3)c3nonc3c2[N+](=O)[O-])cc1	0.24	x

An excerpt. The share of hits here may be higher or lower than overall.
